Screening results: PubChem BioAssay, National Center for Advancing Translational Sciences (NCATS)
Vaccinia mCherry: vaccinia inhibition (mCherry reporter) | Vaccinia virus mCherry reporter infection, fluorescence; about a quarter of the inactives have no number | AID 720579 | Potency, µM (titrated, usually from 36.5 µM), for inactives: at the top dose activity change, negative = inhibition, most hits filed as inhibitors | 0.63% of 310,000 active; active = well fitted inhibition curve with a large enough effect; inconclusive = small, poorly fitted or top-dose-only effect; inactive = no such curve, though single readings can be large or run the other way; tested in A549 cells; note: nearly all actives have a fitted effect of over 35% in size; inactives centre near -10
VACV Venus inh: vaccinia inhibition (Venus reporter) | Vaccinia virus Venus reporter expression, fluorescence | Potency, µM (series often up to 36.5 µM), for inactives: at the highest dose activity change, negative = inhibition, usual class: inhibitors | 0.46% of 330,000 active | AID 720580; active means well fitted inhibition curve with a large enough effect; inconclusive means small, poorly fitted or top-dose-only effect; inactive means no such curve, though single readings can be large or run the other way; tested in A549 cells; note: nearly all actives have a fitted effect of over 30% in size; inactives centre near -10
* marks the source's active call; other numbers are inactive results; i = inactive; ? = inconclusive; . = not tested or not shown; & = joins results of further samples; [ ] = another dose, or the depositor's remark. % is set by controls: 0 for no effect and ±100 for the full control effect; potency is the fitted concentration of half-maximal effect. Random draw from the library; any-hit rate near 0.87%.

SMILES	Vaccinia mCherry	VACV Venus inh
CC(C)NC(=O)C1(C)CN(S(C)(=O)=O)CC(=O)N1CC(F)(F)F (stereo not given)	-11.4%	10.7%
CC1(C)OC(=O)C2=C(C[C@@H](C3CCCCC3)O[C@@H]2c2ccc(F)cc2)O1	-13.5%	4.5%
CCN(CC)C(=O)C1CCCN(C(=O)Nc2ccc(NC(=O)N3CCCC(C(=O)N(CC)CC)C3)cc2)C1 (stereo not given)	-7.7%	-5.9%
CCN(CC)S(=O)(=O)c1cccc(C(=O)N/N=C/c2cccc(O)c2O)c1	10µM*	?
CCCCOC(=O)C[N+](C)(C)CCOC1CC2CCC1(C)C2(C)C (stereo not given)	-0.3%	-19.9%
Cc1ccc(Cl)cc1NC(=O)c1ccc(-c2nc(CSc3ccccc3)c(C)o2)cc1	-22.9%	-16.8%
CCOc1ccc2nc(NC(=O)CSc3nc4cccnc4n3C)sc2c1	?	?
COc1cc(NC(=O)CSc2nnc(-c3ccncc3)o2)cc(OC)c1OC	i	-17.7%
CCCCN(c1ccccc1)c1ncnc2nc[nH]c12	?	-23.0%
O=C(O)Cn1cc(/C=N/NC(=O)c2cc3cc(Br)ccc3o2)c2ccccc21	?	-4.8%
Cc1nnc(N2CCN(c3ccc(Cl)cc3)CC2)c2c1nnn2Cc1ccc(F)cc1	-20.3%	-16.7%
Cc1ccc(Cn2cc3c(n2)-c2c(oc(C(=O)Nc4ccc(F)cc4F)c2C)CC3)cc1	-20.2%	-17.8%
COc1cccc(OC)c1-c1cc(CCCc2cc(-c3c(OC)cccc3OC)nc3ccccc23)c2ccccc2n1	10µM*	?
CC(=O)Nc1ccc(S(=O)(=O)N2CCc3ccccc3C2CC(=O)O)cc1 (stereo not given)	-5.2%	3.4%
CCOc1cc2c(cc1OCC)C(c1ccc(C(=O)O)cc1)NCC2 (stereo not given)	i	-11.9%
Cc1csc(CCc2nc(C)cs2)n1	.	3.3%
CNc1cncc(-c2ccc(OCCCN(C)C)nc2)n1	50.1%[activator]	-1.4%
COc1cc(C2NC(=O)NC(C)=C2C(=O)Nc2cc(C)cc(C)c2)ccc1O (stereo not given)	-2.4%	-3.9%
CC(C(=O)Nc1ccccc1)N(c1cccc(Cl)c1)S(C)(=O)=O (stereo not given)	?	-12.0%
O=C(CSc1ncccn1)Nc1ccc2c(c1)OCO2	i	4.4%
O=C(Nc1ccc2c(c1)OCCO2)c1ccc(Br)o1	-14.3%	0.5%
CC1C(c2ccccc2)N(C)C(c2ccccc2)CC1(O)c1ccccc1 (stereo not given)	-1.2%	-14.6%
COc1ccc(C2=NS(=O)(=O)N(C)C(C(=O)NCc3ccccn3)=C2)cc1OC	-5.0%	-1.9%
O=C(Nc1ccc(NC(=S)NC(=O)c2cccs2)cc1)c1ccccc1	i	-16.9%
Cc1cccc(OCCNc2cc(N3CCOCC3)ccc2[N+](=O)[O-])c1	?	?
(cont.)
SMILES	Vaccinia mCherry	VACV Venus inh
CCc1nnc(SCC(=O)Nc2ccc(OC)c(OC)c2)c2cc3occc3n12	1.5%	-7.5%
Cc1ccc(-c2nn3c(=O)c(C)nnc3s2)cc1	-10.7%	-10.4%
COCCNC(=O)CCn1c(=O)oc2ccccc21	-3.5%	-4.2%
Cc1ccc(S(=O)(=O)NCC(=O)N(CC(=O)NCC2CCCO2)c2ccc(Cl)cc2)cc1 (stereo not given)	-20.6%	2.2%
CCCOc1ccc(CCC(=O)N/N=C/c2ccncc2)cc1	i	-8.9%
CC(C)N(C(C)C)S(=O)(=O)c1ccc(Cl)nc1	i	4.9%
O=C(c1ccc2c(=O)n(-c3ccccc3)c(=O)[nH]c2c1)N1CCCCC1	i	-12.7%
O=C(Nc1nc(=O)n(C(=O)C2CC2)s1)c1ccccc1	-8.5%	-5.3%
NCc1ccccc1COc1ccccc1	i	-8.2%
Oc1ccccc1C=NCCCCCCN=Cc1ccccc1O	-24.8%	3.6%
COc1ccc(S(=O)(=O)NCC(=O)N(CC(=O)NCC2CCCO2)c2cc(C)ccc2C)cc1 (stereo not given)	.	-19.7%
O=C(NCC(c1cccnc1)N1CCc2ccccc2C1)C(=O)Nc1ccccc1F (stereo not given)	-9.3%	-6.0%
S=c1[nH]nc(-c2ccccn2)n1/N=C/c1cccc(Cl)c1	i	0.8%
COc1ccccc1N1CCN(CC(=O)Nc2sccc2C#N)CC1	-12.9%	-3.9%
Cc1cccnc1NC(=O)c1ccc(S(=O)(=O)N2CCC(C)CC2)cc1	-17.6%	-21.2%
COc1cc(C(=O)N(C)C2CCCCC2)cc(OC)c1OC	-14.8%	-8.8%
CN(CC(=O)NCc1ccco1)S(=O)(=O)c1ccc2c(c1)c(=O)n(C)c(=O)n2C	i[7.34 µM]	0.0%[7.34 µM]
COc1cccc(CN2C(=O)NC(C)(C3CCN(Cc4cccc(O)c4)CC3)C2=O)c1OC (stereo not given)	-2.8%	-22.3%
Cc1c(Br)c(C(F)(F)F)nn1CC(=O)NCCCn1ccnc1	i	-1.2%
CC(C)c1ccc(NC(=O)Cn2c(=O)n(CCc3ccccc3)c(=O)c3ccccc32)cc1	-12.3%	-10.8%
COc1ccc(CNC(=O)c2sc(=O)n(Cc3ccc(-c4ccccc4)cc3)c2C)cc1OC	-15.4%	-24.8%
COc1ccccc1/C=C(/C(=O)OCC(=O)Nc1cc(C)ccc1C)c1ccccc1	-1.7%	-10.6%
C=CCc1ccccc1OCCOc1ccc([N+](=O)[O-])cc1/C=N/NC(N)=O	-15.5%	-9.3%
COc1ccc(N2CC(C)Cn3c2nc2c3c(=O)n(Cc3ccc(F)cc3)c(=O)n2C)c(OC)c1 (stereo not given)	-11.4%	-20.0%
N#C/C(=C\c1ccc(-c2ccccc2)cc1)c1nc(-c2ccco2)cs1	-13.6%	-3.5%

Pulled by compound from the entries so far:
SMILES	Vaccinia mCherry	VACV Venus inh
N#C/C(=C\c1ccc(-c2ccccc2)cc1)c1nc(-c2ccco2)cs1	-13.6%	-3.5%
COc1ccc(S(=O)(=O)NCC(=O)N(CC(=O)NCC2CCCO2)c2cc(C)ccc2C)cc1 (stereo not given)	.	-19.7%
O=C(Nc1nc(=O)n(C(=O)C2CC2)s1)c1ccccc1	-8.5%	-5.3%

Next part:
SMILES	Vaccinia mCherry	VACV Venus inh
CCc1ccccc1NS(=O)(=O)c1ccc2[nH]cc(C(=O)N3CCCCC3)c(=O)c2c1	-8.5%	-1.5%
CC(=O)Nc1ccc(C(=O)CSc2nccc(=O)[nH]2)cc1	-2.5%	-19.3%
CN(Cc1ccc(F)cc1)C(=O)C(c1ccccc1)c1ccccc1	-7.2%	0.5%
CC(=O)Nc1ccc(S(=O)(=O)N2CCN(c3cccc(C)c3C)CC2)cc1	?	?
Cc1ccc(C2/C(=C(/O)c3ccc(Br)cc3)C(=O)C(=O)N2Cc2ccco2)o1 (stereo not given)	.	-15.1%
COc1cc2c(c(OC)c1OC)-c1c(cc3c(c1OC)OCO3)C1OC2[C@@H](C)[C@H]1C (stereo not given in full)	i	-8.7%
Cc1cc(C(=O)OCC(=O)N2CCN(c3ccccc3)CC2)c2ccccc2n1	-14.5%	-15.9%
CCCCNc1cc(NC2CCCCC2)c2c3c(onc13)-c1ccccc1C2=O	42.9%[activator]	-1.1%
CC1=Nc2cc(C(=O)NCCCOC(C)C)ccc2Sc2ccccc21	-3.1%	-24.2%
COc1ccc(/C=C(\C)C(=O)c2c(C)cc(C)[nH]c2=O)cc1	-14.4%	-16.4%
COc1ccc(N(CCC#N)S(=O)(=O)c2cccc3nsnc23)cc1	i	-9.1%
CCC(=Nc1ccc(N)cc1)C1=C(O)C(C(=O)OC)C(C)(C)CC1=O (stereo not given)	43.8%[activator]	155.9%[activator]
Cc1ccccc1OCC(=O)Nc1nc(-c2ccncc2)cs1	i	-15.7%
COc1ccccc1-c1nc2cc3ccccc3cc2nc1-c1ccccc1OC	-6.5%	-13.0%
O=C(OCCN1CCOCC1)c1ccc2c(c1)OCCO2	-17.6%	-4.4%
COc1ccccc1-c1nc(S(=O)(=O)c2ccccc2)c(N2CCC(C)CC2)o1	-17.1%	0.6%
CCOC(=O)C1C(=O)NC(N2CCc3ccccc32)=NC1c1ccccc1 (stereo not given)	.	-19.5%
CCN1C(=O)/C(=C2\SC(=S)N(c3c(C)n(C)n(-c4ccccc4)c3=O)C2=O)c2ccccc21	-4.1%	-7.0%
COc1ccc(-n2c(O)c(C=NCCN(C)C)c(=O)[nH]c2=O)cc1	i	-4.1%
CCOC(=O)c1cc2c(=O)n3ccccc3nc2n(Cc2ccco2)c1=NC(=O)c1ccccc1OC	-11.9%&-3.2%	-9.7%&-21.5%
O=C(NCC1(N2CCCCC2)CCCCC1)c1cccc(S(=O)(=O)Nc2ccccc2Cl)c1	-5.9%	1.1%
CCc1cccc(CC)c1-n1c(SCC(=O)N2CCCc3ccccc32)nc(O)cc1=O	-13.5%	0.3%
COc1cccc(C(O)c2nc(-c3cccc(C(=O)O)c3)cs2)c1 (stereo not given)	-6.9%	-7.1%
OC[C@@H]1CN(Cc2ccco2)C[C@H](n2cnc3c(N4CCOCC4)ncnc32)O1	44.0%[activator]	1.2%
COc1ccccc1CN(CC(=O)NCc1ccc2c(c1)OCO2)C(=O)c1csnn1	-1.4%	-2.9%
More records follow.
SMILES	Vaccinia mCherry	VACV Venus inh
CC(Sc1nc2ccccc2s1)C(=O)N(C)Cc1ccccc1 (stereo not given)	-16.6%	-7.6%
C/C=C/c1ccc(OCC(=O)Nc2ccc(OC)c(OC)c2)c(OC)c1	i	-5.3%
Cc1ccc(C(C)C)cc1OCCCCN1CCCC1	-11.3%	-7.9%
CCCN1CCN(C(=O)CCNC(=O)Cn2cnc3ccccc3c2=O)CC1	-8.8%	-0.3%
Cc1cc(NC(=O)/C(C#N)=C/c2ccc(-c3ccc(SC(F)F)cc3)o2)n(-c2ccccc2)n1	i	-25.7%
O=C(NCCO)/C(=C\c1ccc2c(c1)OCO2)NC(=O)c1ccc(Br)cc1	-0.9%	-7.2%
COCCCNC(=O)c1cn(Cc2c(F)cccc2Cl)nn1	1.8%	4.0%
Cc1c(NC(=S)NC(=O)c2ccc(-c3ccc(Cl)cc3)o2)cccc1C(=O)O	i	-8.8%
CC(C)Cc1nc2cc(NS(=O)(=O)N(C)C)cc(C(=O)N3CCOc4ccccc4C3)c2n1C	-14.5%	-8.2%
CCc1ccccc1NC(=O)c1sc2nc3c(cc2c1N)CN(Cc1ccccc1)CC3	?	?
CCOc1ccc(S(=O)(=O)n2ccc(C)n2)c2ccccc12	-9.8%	-2.1%
CCN(C(=O)Cn1ccc(C(F)(F)F)n1)c1c(N)n(Cc2ccccc2)c(=O)[nH]c1=O	i	-4.2%
CCn1c(SCC(=O)Nc2nnc(C)s2)nc2c(c1=O)SC(C)C2 (stereo not given)	12.4%	2.0%
C[C@]12CCC(=O)C=C1CCC1C2CC[C@@]2(C)C1CCC21OCCO1 (stereo not given in full)	i	-13.8%
O=C(c1ccc(NS(=O)(=O)c2cccc(C(F)(F)F)c2)cc1)N1CCCC1	i	-9.8%
CC(O)CNC1c2ccccc2CC1O (stereo not given)	-15.9%	-1.0%
CCC(Cc1ccccc1)NC(=O)Cn1ncc2c3ccccc3n(Cc3ccc(F)cc3)c2c1=O (stereo not given)	?	?
COC(=O)c1ccc(C(=O)OC)c(NC(=O)CN(C)Cc2ccccc2)c1	i	-12.8%
Cc1ccc(-c2nnc3ccc(SCC(=O)c4ccccc4)nn23)cc1	-25.4%	?
CCn1c(SCC(=O)N/N=C(\C)c2ccncc2)nnc1-c1ccccc1	-17.9%	-1.8%
CCOC(=O)[C@]12CCCC=C1N(Cc1ccco1)C(=O)[C@H](CC(=O)NCc1cccc3ccccc13)C2	-16.4%	-13.6%
N#C/C(=C\c1coc2ccccc2c1=O)C(N)=S	3.3%	12.4%
O=C(Nc1ncnc2c1ncn2[C@@H]1O[C@H](/C=C/C(=O)N2CCN(c3ccc(F)cc3)CC2)[C@@H](O)[C@H]1O)c1ccccc1	36.3%[activator]	11.4%
O=C(NCCCCCCNC(=O)OC1CCS(=O)(=O)C1)OC1CCS(=O)(=O)C1 (stereo not given)	-12.4%	-0.1%
Cc1ccc(NC(=S)NC(CO)C(O)c2ccc([N+](=O)[O-])cc2)cc1 (stereo not given)	-9.6%	2.6%

Of the compounds above, 3 contain a thiophene ring, fused or not.
SMILES	Vaccinia mCherry	VACV Venus inh
O=C(Nc1ccc(NC(=S)NC(=O)c2cccs2)cc1)c1ccccc1	i	-16.9%
COc1ccccc1N1CCN(CC(=O)Nc2sccc2C#N)CC1	-12.9%	-3.9%
CCc1ccccc1NC(=O)c1sc2nc3c(cc2c1N)CN(Cc1ccccc1)CC3	?	?

Later entries:
SMILES	Vaccinia mCherry	VACV Venus inh
O=C(O)CCCCCCCCc1cn(CN2C(=O)c3ccccc3C2=O)nn1	-10.0%	-10.3%&-9.4%
CCOc1ccc(C(Nc2ccc(C)cc2)P2(=O)OCC(C)(C)CO2)cc1 (stereo not given)	.	-17.4%
CC(=O)NCCc1nc2ccccc2n1Cc1cccc(C)c1	i	-0.3%
O=C(c1cccs1)N1C(=O)c2cccc3cccc1c23	-13.5%	-0.3%
N#CC(/C(=N/S(=O)(=O)c1cccs1)c1ccccc1)c1nc2ccccc2[nH]1 (stereo not given)	-5.5%	-10.4%
Cc1ccc(NC(=O)c2c(C)oc3ncnc(N4CCCCC4)c23)cc1Cl	-0.5%	-13.4%
CC(C)(C)n1cccc1/C=C1\C(=O)NC(=O)N(c2ccccc2)C1=O	-9.5%	-9.3%
Cc1cccc(C)c1NC(=O)CSc1nc(C)c(CC(=O)c2ccc(Br)cc2)c(C)c1C#N	.	-1.6%
O=C(CCSc1nnc(-c2ccncc2)o1)Nc1ccc(F)cc1	-10.1%	-11.5%
